AF4-AF9 inh = inhibitors of human MLL-AF4/AF9 interaction | inhibition, % at 10 µM | AlphaScreen, biotin-AF4 peptide binding to FLAG-AF9 | actives 0.47% (n = 350,000) | AID 651704;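 active means every replicate reaching a set inhibition limit, whatever the replicate mean, cut at about 25% in these data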;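 further: 0% = plate neutral control median and 100% = total signal loss; the record names both 10 and 1 µM as test concentration; the first replicate is given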
Target sequence (P42568 whole entry, looked up): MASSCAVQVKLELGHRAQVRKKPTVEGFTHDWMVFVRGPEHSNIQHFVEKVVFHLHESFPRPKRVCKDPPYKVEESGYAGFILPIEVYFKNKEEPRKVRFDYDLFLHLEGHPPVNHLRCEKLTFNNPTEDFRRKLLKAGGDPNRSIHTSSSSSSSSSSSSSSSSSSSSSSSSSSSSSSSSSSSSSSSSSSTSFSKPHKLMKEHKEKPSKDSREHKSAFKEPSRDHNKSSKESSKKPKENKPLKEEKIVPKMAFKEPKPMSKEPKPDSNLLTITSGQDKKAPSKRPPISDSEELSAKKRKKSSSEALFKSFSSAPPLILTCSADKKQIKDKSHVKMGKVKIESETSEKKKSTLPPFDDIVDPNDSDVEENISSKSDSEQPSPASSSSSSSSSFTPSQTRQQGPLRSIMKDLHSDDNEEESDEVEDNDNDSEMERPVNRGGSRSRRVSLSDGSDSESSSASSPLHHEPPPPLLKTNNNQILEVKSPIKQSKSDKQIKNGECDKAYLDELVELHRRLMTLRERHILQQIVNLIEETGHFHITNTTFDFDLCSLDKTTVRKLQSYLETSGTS
* hit, by the source's call; & = joins results of further samples. The list is partial; the hit share may differ from the screen's.

Compound	AF4-AF9 inh
COc1cccc(S(=O)(=O)N[C@H]2C=C[C@@H](CC(=O)NC3Cc4ccccc4C3)O[C@@H]2CO)c1	-1.2
CC(C)CC#Cc1ccc2c(c1)O[C@H](CN(C)Cc1ccccc1F)[C@@H](C)CN([C@H](C)CO)S2(=O)=O	-1.1
COC(=O)C[C@H]1CC[C@@H]2[C@H](COC[C@H](O)CN2S(=O)(=O)c2ccc(F)cc2)O1	0.3
COc1cc(C(=O)N2C[C@H]3CON(C)[C@H]3C[C@H]2c2ccc(N3CCCCC3)cc2)cc(OC)c1OC	1.2
COc1ccc(Br)c(Cn2c(C)c(C(=O)NCc3ccc(F)cc3)sc2=O)c1	-4.9
COc1ccccc1CNC(=O)C[C@H]1C[C@@H]2c3cc(NC(=O)C4CCC4)ccc3O[C@@H]2[C@@H](CO)O1	-12.8
COc1ccc2c3c([nH]c2c1)[C@@H](CO)N(S(C)(=O)=O)CC31CN(CC2CCOCC2)C1	-1.2
O=C(NC[C@@H]1CC[C@H]2[C@H](CN2Cc2cc(-c3ccccc3)on2)O1)c1ccc2c(c1)OCO2	-3.6
CO[C@@H]1CN(C)C(=O)c2cc(NC(C)=O)ccc2OC[C@H](C)N(C(=O)c2cnccn2)C[C@@H]1C	-2.0
O=C(Cc1ccccn1)N[C@@H]1CC[C@@H](CCNC(=O)c2cc(Cl)cc(Cl)c2)O[C@@H]1CO	-0.8
O=C(C(=Cc1ccc(O)cc1)c1ccccc1)c1ccccc1	13.2
CC(C)C#Cc1cnc2c(c1)C(=O)N([C@@H](C)CO)C[C@@H](C)[C@H](CN(C)C(=O)C1CCC1)O2	-0.9
O=C(Cc1ccccn1)NCC[C@@H]1CC[C@H](NC(=O)c2ccccc2F)[C@@H](CO)O1	-3.0
CO[C@H]1CN(C)C(=O)c2ccc(NC(=O)Nc3c(C)noc3C)cc2OC[C@@H](C)N(CC2CC2)C[C@H]1C	-9.6
CCNC(=O)C1(C)CCCN(Cc2ccc(-c3ccccn3)cc2)C1 (centres undefined)	-3.1
Cc1noc(C)c1S(=O)(=O)Nc1ccc2c(c1)C(=O)N([C@H](C)CO)C[C@@H](C)[C@@H](CN(C)C(=O)CCC(F)(F)F)OCCCC[C@@H](C)O2	-0.4
CN1C[C@@H]2[C@@H]3C(=O)N(C)C(=O)[C@@H]3[C@](Cc3ccccc3)(C1=O)N2C(=O)c1ccccc1	2.4
CC1(C(=O)NCc2ccc3c(c2)OCO3)CCN1CCc1ccccc1 (centres undefined)	4.5
C[C@@H]1CN([C@@H](C)CO)C(=O)c2cc(NS(=O)(=O)c3ccc(Cl)cc3)ccc2O[C@@H]1CN(C)CC1CC1	7.2
COc1ccccc1CNC(=O)C[C@H]1CC[C@H]2[C@@H](COc3ccc(NS(=O)(=O)c4ccc(C)cc4)cc3C(=O)N2C)O1	-21.3
CC1=C(C(=O)N2CCCCCC2)CC(CC(=O)NCCN2CCOCC2)C(=O)N1Cc1ccc(F)cc1 (centres undefined)	-1.1
OC(c1ccc(F)c(F)c1)c1nc(-c2cccc(F)c2)cs1 (centres undefined)	4.3
C[C@@H]1CN([C@@H](C)CO)S(=O)(=O)c2ccc(C#CC3CC3)cc2O[C@@H]1CN(C)C(=O)c1cccnc1	-3.0
C[C@H](CO)N1C[C@H](C)[C@H](CN(C)C)Oc2cc(-c3ccccc3)ccc2S1(=O)=O	-0.8
CSCCC(C(=O)NC(C)(C)C)n1c(-c2cccc(NC(C)=O)c2)nc2ccccc21 (centres undefined)	11.3
CCNC(=O)C[C@H]1C=C[C@H](NC(=O)C2CC2)[C@H](CO)O1	-0.3
CCC(=O)N1[C@@H](CO)[C@@H](c2ccc(-c3cccc(F)c3)cc2)[C@@H]1CN(C)C(C)=O	2.3
O=C(NCCN1CCC(n2c(=O)[nH]c3ccccc32)CC1)c1ccc(F)cc1	0.0
CO[C@@H]1CN(C)C(=O)c2cc(NS(C)(=O)=O)ccc2OC[C@@H](C)N(Cc2cncnc2)C[C@@H]1C	-2.1
CCOc1ccc(-c2noc(-c3csc([C@@H]4C[C@H](O)[C@@H](CO)O4)n3)n2)cc1	0.7
COc1ccc(S(=O)(=O)Nc2cccc3c2O[C@H](CN(C)C(=O)NC2CCCCC2)[C@H](C)CN([C@@H](C)CO)C3=O)cc1	-1.7
COc1ccc(S(=O)(=O)N(C)C[C@@H]2Oc3ccc(NS(C)(=O)=O)cc3C(=O)N([C@H](C)CO)C[C@@H]2C)cc1	-1.7
Cc1ccccc1S(=O)(=O)N1CC(=O)N2[C@H](CO)[C@@H](c3ccc(C#CCC(C)C)cc3)[C@@H]2C1	-4.4
CC(C)NC(=O)N(C)C[C@@H]1Oc2cc(C#CC3CC3)ccc2S(=O)(=O)N([C@@H](C)CO)C[C@H]1C	-2.7
C[C@H](CO)N1C[C@H](C)[C@@H](CN(C)C(=O)c2ccccc2)OCCCC[C@H](C)Oc2ccc(NC(=O)Nc3ccc(C(F)(F)F)cc3)cc2C1=O	1.5
CC(C)NC(=O)Nc1ccc2c(c1)C(=O)N([C@H](C)CO)C[C@@H](C)[C@@H](CN(C)S(=O)(=O)c1cccs1)OCCCC[C@@H](C)O2	3.3
C[C@H](CO)N1C[C@H](C)[C@H](CN(C)C)Oc2ncc(C#CCN(C)C)cc2C1=O	-4.9&-1.0
C[C@@H]1CN([C@@H](C)CO)C(=O)c2cccc(NC(=O)c3cnccn3)c2O[C@H]1CN(C)Cc1ccc(-c2ccccc2)cc1	3.8
CN(C)CC(=O)N[C@@H]1CC[C@H](CCNC(=O)C2CC2)O[C@H]1CO	-2.8
O=C(C[C@@H]1CC[C@H]2[C@@H](COC[C@H](O)CN2C(=O)Nc2ccc(Cl)cc2)O1)NCCc1ccncc1	1.7
C[C@H]1CN([C@@H](C)CO)C(=O)Cc2cc(NS(=O)(=O)c3ccccc3)ccc2O[C@H]1CN(C)C(=O)NC1CCCCC1	-1.6
O=C(CN1CCOCC1)NCC[C@@H]1CC[C@H](NC(=O)Nc2ccccc2)[C@@H](CO)O1	-1.7
C[C@H]1CN([C@@H](C)CO)C(=O)Cc2cc(NC(=O)Nc3ccc(F)cc3)ccc2O[C@@H]1CN(C)Cc1ccc(C(=O)Nc2ccccc2N)cc1	0.1
COc1ccccc1NC(=O)N[C@H]1C=C[C@@H](CC(=O)NCc2ccc(Cl)c(Cl)c2)O[C@H]1CO	0.6
C[C@@H](NC(=O)C[C@@H]1C[C@@H]2c3cc(NC(=O)Nc4ccccc4F)ccc3O[C@@H]2[C@@H](CO)O1)c1ccccc1	-0.5

Sorted by number of heavy atoms (largest number first): three of the compounds above
Compound	AF4-AF9 inh
CC1=C(C(=O)N2CCCCCC2)CC(CC(=O)NCCN2CCOCC2)C(=O)N1Cc1ccc(F)cc1 (centres undefined)	-1.1
Cc1ccccc1S(=O)(=O)N1CC(=O)N2[C@H](CO)[C@@H](c3ccc(C#CCC(C)C)cc3)[C@@H]2C1	-4.4
CSCCC(C(=O)NC(C)(C)C)n1c(-c2cccc(NC(C)=O)c2)nc2ccccc21 (centres undefined)	11.3

Next part
COc1cc(CO)cc(I)c1O[C@H]1C=C(C(=O)NCCO)C[C@@H](NCc2ccccc2F)[C@@H]1O
  AF4-AF9 inh = -2.6
COCC(=O)Nc1ccc2c(c1)[C@H]1C[C@@H](CC(=O)N[C@@H](C)c3ccccc3)O[C@@H](CO)[C@H]1O2
  AF4-AF9 inh = -0.8
CCc1nc2ccc(C(=O)N(C)CCN(C)C)cn2c1N(C)Cc1cc2ccccc2s1
  AF4-AF9 inh = 10.9
CN(C)c1ccc(C=c2c3ccccc3n3c2c2ccccc2[n+]3C)cc1
  AF4-AF9 inh = 51.1*
CS(=O)(=O)N1CC(=O)N2[C@@H](CO)[C@H](c3ccc(C#Cc4ccc(F)cc4)cc3)[C@@H]2C1
  AF4-AF9 inh = 0.6
COc1ccc2c3c([nH]c2c1)[C@H](CO)N(Cc1ccc(F)cc1)CC31CCN(C(C)=O)CC1
  AF4-AF9 inh = -0.8
C[C@@H](NC(=O)[C@@H]1N[C@@H]2c3ccc(-c4cccnc4)c(=O)n3C[C@@H]2[C@H]1CO)c1ccccc1
  AF4-AF9 inh = 4.0
CN1C(=O)c2cc(NC(=O)c3cccc(F)c3)ccc2OC[C@H]2O[C@H](CC(=O)NCC3CCCCC3)CC[C@H]21
  AF4-AF9 inh = -22.8&-18.8
C[C@@H]1CCCCO[C@H](CN(C)C(=O)CCCN(C)C)[C@H](C)CN([C@H](C)CO)C(=O)c2cc(NC(=O)Nc3cccc4ccccc34)ccc2O1
  AF4-AF9 inh = -2.1
C=CCN1C(=O)[C@@]2(Cc3ccccc3)N=C(c3ccc(OCCCO)cc3)O[C@H]2c2ccccc21
  AF4-AF9 inh = -0.7

CC(C)C(=O)Nc1ccc2c(c1)C(=O)N(C)[C@H]1CC[C@@H](CC(=O)NCc3ccc(F)cc3)O[C@@H]1CO2
  AF4-AF9 inh = -1.0
COCC(=O)Nc1ccc2c(c1)C(=O)N(C)C[C@H](OC)[C@@H](C)CN(Cc1ccccn1)[C@H](C)CO2
  AF4-AF9 inh = -1.4
COc1cccc(-c2cn(CC[C@H]3CC[C@H](NC(=O)CC4CC4)[C@@H](CO)O3)nn2)c1
  AF4-AF9 inh = -0.8
CNC[C@@H]1Oc2cc(-c3ccccc3OC)ccc2S(=O)(=O)N([C@H](C)CO)C[C@H]1C
  AF4-AF9 inh = -8.0
Cc1noc(C)c1S(=O)(=O)Nc1cccc2c1O[C@@H](CN(C)Cc1ccc(C(=O)Nc3ccccc3N)cc1)[C@@H](C)CN([C@H](C)CO)C2=O
  AF4-AF9 inh = 0.1
CCCCCCn1c(COc2ccccc2F)nnc1SCC(=O)NC1CCS(=O)(=O)C1 (centres undefined)
  AF4-AF9 inh = -2.4
O=C(CCN1CCCCC1)NCC[C@H]1CC[C@@H](NC(=O)C2CCC2)[C@H](CO)O1
  AF4-AF9 inh = -0.8
COC(=O)C1=CN(c2ccc(N3CCOCC3)cc2)C(N)=C(C#N)C1c1cccc(F)c1 (centres undefined)
  AF4-AF9 inh = 7.3
C[C@@H]1CN([C@@H](C)CO)C(=O)c2cc(NC(=O)NC3CCCCC3)ccc2O[C@@H](C)CCCCO[C@@H]1CN(C)C(=O)CCC(F)(F)F
  AF4-AF9 inh = 2.6
CCCn1c(SCC(=O)Nc2cc(S(=O)(=O)N3CCCCC3)ccc2C)n[nH]c1=O
  AF4-AF9 inh = -0.8

Filtered by structure: the entries above containing an aryl thioether with sulfur outside any ring.
CCCCCCn1c(COc2ccccc2F)nnc1SCC(=O)NC1CCS(=O)(=O)C1 (centres undefined)
  AF4-AF9 inh = -2.4
CCCn1c(SCC(=O)Nc2cc(S(=O)(=O)N3CCCCC3)ccc2C)n[nH]c1=O
  AF4-AF9 inh = -0.8

(listing goes on)
COc1cccc(-c2ccc([C@H]3[C@@H](CO)N4CCCCN(C(=O)c5ccc(F)cc5)C[C@@H]34)cc2)c1
  AF4-AF9 inh = -11.5
CO[C@@H]1CN(C)C(=O)c2ccc(NC(=O)C3CCC3)cc2OC[C@@H](C)N(Cc2ccccn2)C[C@@H]1C
  AF4-AF9 inh = -0.2
COc1ccc(S(=O)(=O)N(C)C[C@H]2OCCCC[C@H](C)Oc3ccc(NC(=O)c4ccccc4)cc3C(=O)N([C@H](C)CO)C[C@@H]2C)cc1
  AF4-AF9 inh = -3.2
Cc1ccc(S(=O)(=O)N(C)C[C@@H]2OCCCC[C@@H](C)Oc3ccc(NC(=O)Nc4ccc(C(F)(F)F)cc4)cc3C(=O)N([C@H](C)CO)C[C@H]2C)cc1
  AF4-AF9 inh = -5.3
CC(C)NC(=O)N(C)C[C@@H]1OCCCC[C@@H](C)Oc2ccc(NS(=O)(=O)c3ccc(Cl)cc3)cc2C(=O)N([C@H](C)CO)C[C@H]1C
  AF4-AF9 inh = -0.4
Cc1cnc(CNC(=O)c2ccc3nc([C@@H]4O[C@H](CO)[C@H](O)[C@H](O)[C@H]4O)[nH]c3c2)cn1
  AF4-AF9 inh = -3.0
Clc1cccc(-c2nc3ccc(Br)cn3c2Cc2ccsc2)c1
  AF4-AF9 inh = -0.3
Cc1noc(C)c1NC(=O)Nc1ccc2c(c1)C(=O)N([C@@H](C)CO)C[C@H](C)[C@@H](CN(C)C(=O)Nc1ccc3c(c1)OCO3)O2
  AF4-AF9 inh = 0.1
Cc1noc(C)c1S(=O)(=O)Nc1ccc2c(c1)CC(=O)N([C@H](C)CO)C[C@@H](C)[C@H](CN(C)C(=O)Nc1ccc(C(F)(F)F)cc1)O2
  AF4-AF9 inh = -1.9
COc1ccccc1S(=O)(=O)N(C)C[C@H]1Oc2cc(C#CCC3CCCC3)ccc2S(=O)(=O)N([C@@H](C)CO)C[C@H]1C
  AF4-AF9 inh = 1.4

C[C@H](O)C#Cc1ccc([C@H]2[C@@H](CO)N3CCCCN(CC4CC4)C[C@H]23)cc1
  AF4-AF9 inh = 11.9
CCCC(=O)Nc1ccc2c(c1)OC[C@H](C)N(C(=O)c1ccncc1)C[C@H](C)[C@@H](OC)CN(C)C2=O
  AF4-AF9 inh = -5.1
Cc1noc(C)c1S(=O)(=O)N(C)C[C@@H]1OCCCC[C@@H](C)Oc2ccc(NC(=O)CCCN(C)C)cc2C(=O)N([C@@H](C)CO)C[C@H]1C
  AF4-AF9 inh = -0.5
Cc1cccc(CN2CCN(C3CN(Cc4cn(Cc5ccc(C(F)(F)F)cc5)nn4)S(=O)(=O)C3)CC2)c1 (centres undefined)
  AF4-AF9 inh = 0.4
O=C(/C=C/[C@H]1O[C@@H](n2cnc3c(NC(=O)c4ccccc4)ncnc32)[C@H](O)[C@@H]1O)NCCc1c[nH]c2ccccc12
  AF4-AF9 inh = 1.9
C[C@@H]1CN([C@H](C)CO)C(=O)c2cc(NC(=O)Nc3cccc4ccccc34)ccc2O[C@@H]1CN(C)C(=O)NC1CCCCC1
  AF4-AF9 inh = 1.0
CN1C(=O)c2cc(NC(=O)C3CCOCC3)ccc2OC[C@H]2O[C@H](CC(=O)NCC3CCCCC3)CC[C@@H]21
  AF4-AF9 inh = -2.8
C[C@@H]1CN([C@@H](C)CO)C(=O)c2cc(NC(=O)Nc3ccc(C(F)(F)F)cc3)ccc2O[C@@H](C)CCCCO[C@@H]1CN(C)C(=O)NC1CCCCC1
  AF4-AF9 inh = -3.9
O=C(Cc1ccncc1)NCC[C@H]1CC[C@H](NC(=O)C2CCOCC2)[C@@H](CO)O1
  AF4-AF9 inh = -0.4
CCC(=O)N(C)C[C@H]1Oc2ncc(-c3ccc(F)cc3)cc2C(=O)N([C@H](C)CO)C[C@H]1C
  AF4-AF9 inh = -1.9

Screens (PubChem)
